HPGD block = qHTS Assay for Inhibitors of HPGD (15-Hydroxyprostaglandin Dehydrogenase) | Potency, µM, inactives show top-dose activity change, negative = inhibition, hits mostly inhibitors | purified HPGD, NADH fluorescence kinetic, PGE2 substrate | actives 4.3% (n = 150,000) | 15-hydroxyprostaglandin dehydrogenase [NAD(+)] (Homo sapiens), P15428; active = well fitted inhibition curve with a large enough effect (not every such curve was filed as active); inconclusive = small, poorly fitted or top-dose-only effect, or another doubt; inactive = no such curve, though single readings can be large or run the other way;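 also: top concentration of the series not given in the record; plate controls included wells without enzyme; inactives centre near -10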
Target sequence (P15428 whole entry, looked up): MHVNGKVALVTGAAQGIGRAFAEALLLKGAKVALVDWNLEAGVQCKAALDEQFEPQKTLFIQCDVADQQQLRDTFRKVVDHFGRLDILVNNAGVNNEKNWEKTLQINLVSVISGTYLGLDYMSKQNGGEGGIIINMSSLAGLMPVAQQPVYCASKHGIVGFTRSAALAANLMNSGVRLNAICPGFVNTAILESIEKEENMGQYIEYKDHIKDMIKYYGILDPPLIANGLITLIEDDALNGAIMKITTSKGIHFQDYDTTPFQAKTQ
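20 nM HPGD preincubated 15 min at room temperature with compound in 50 mM Tris-HCl pH 8, 0.01% Tween 20. Started with 1 mM NAD+ and 30 uM prostaglandin E2; NADH fluorescence (360/450 nm) read 5 times over 30-s intervals, last minus first.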
* marks the source's active call; other numbers are inactive results. % is scaled to controls: 0 for no effect and ±100 for the full control effect; potency is read from the fitted curve at half-maximal effect. These rows are one share of the data; count on the stated rates, not on these rows.

Start of the data: the first 7 entries (preview)
`COC(=O)C1=C(C)NC(=S)NC1c1ccc(-c2cccc(Cl)c2)o1` (stereo not given) gave HPGD block -28%.
For CC(=O)NC1CC(C)(C)N(OC(C)=O)C(C)(C)C1 the results were HPGD block -8%.
Cc1ccc(S(=O)(=O)N2CC(O)CC2C(=O)OCc2nc3sc(C)c(C)c3c(=O)[nH]2)cc1 (stereo not given) was read as HPGD block -12%.
For CCOC(=O)N1CCN(C(=O)c2n[nH]c(=O)c3ccccc23)CC1 the results were HPGD block -3%.
For CC1CCN(S(=O)(=O)c2cccc(-c3csc(-c4cccnc4)n3)c2)CC1 the results were HPGD block -15%.
Screening COc1ccc(Cl)cc1NC(=O)NC1CCCCC1 returned HPGD block -14%.
Screening O=C(CSc1nc2c(c(=O)n1-c1ccccc1)SCC2)N1CCN(c2ccccc2)CC1 returned HPGD block -11%.

The listing, from the start:
`COC(=O)C1=C(C)NC(=S)NC1c1ccc(-c2cccc(Cl)c2)o1` (stereo not given) gave HPGD block -28%.
For CC(=O)NC1CC(C)(C)N(OC(C)=O)C(C)(C)C1 the results were HPGD block -8%.
Cc1ccc(S(=O)(=O)N2CC(O)CC2C(=O)OCc2nc3sc(C)c(C)c3c(=O)[nH]2)cc1 (stereo not given) was read as HPGD block -12%.
For CCOC(=O)N1CCN(C(=O)c2n[nH]c(=O)c3ccccc23)CC1 the results were HPGD block -3%.
For CC1CCN(S(=O)(=O)c2cccc(-c3csc(-c4cccnc4)n3)c2)CC1 the results were HPGD block -15%.
Screening COc1ccc(Cl)cc1NC(=O)NC1CCCCC1 returned HPGD block -14%.
Screening O=C(CSc1nc2c(c(=O)n1-c1ccccc1)SCC2)N1CCN(c2ccccc2)CC1 returned HPGD block -11%.
O=C(NN=C1c2ccccc2-c2ccccc21)c1cccc(Br)c1 was read as HPGD block -15%.
For COc1ccc(/C=N/n2c(-c3cccs3)n[nH]c2=S)cc1 the results were HPGD block 4µM*.
Screening C/C=C/C(=O)OCC(=O)NC(=O)NC(C)C returned HPGD block -1%.
COc1cc(/C=N/NC(=O)CCn2c3ccccc3c3ccccc32)ccc1O was read as HPGD block -11%.
For Cn1nc(C(C)(C)C)cc1C(=O)NCc1ccc(N2CCCC2=O)cc1 the results were HPGD block -6%.
For O=C1N=C(N2CCOCC2)S/C1=C\C=C/c1ccccc1 the results were HPGD block -13%.
N#Cc1cn(CC(=O)NCc2cccnc2)c2ccccc12 was read as HPGD block -6%.
CC1Cc2ccccc2N1C(=O)C1CCCN1S(=O)(=O)c1ccc(Cl)cc1 (stereo not given) was read as HPGD block -3%.
For Cc1cc(C(=O)OCC(=O)Nc2ccccc2F)c(C)o1 the results were HPGD block -7%.
CCOc1cccc(C2C(C#N)=C(N)Oc3cc(C)n(Cc4ccccn4)c(=O)c32)c1OCC (stereo not given) was read as HPGD block -4%.
Screening O=c1c2ccccc2nc(COc2ccccc2)n1/N=C/c1c[nH]c2ccccc12 returned HPGD block inconclusive.
For CCOc1ccc2nc(SCC(=O)NCc3ccco3)sc2c1 the results were HPGD block 22µM*.
Cc1cc(C(=O)OCC(=O)NC(=O)NC(C)(C)C)c(C)o1 was read as HPGD block -7%.
For COc1cc(/C=N/NC(=O)CC2(C)OCCCO2)ccc1OCc1ccc(Cl)cc1Cl the results were HPGD block -22%.
`CCC(C)(C)n1nnnc1C(CC(C)C)N1CCC(C(N)=O)CC1` (stereo not given) gave HPGD block -14%.
Screening CC(C)(C)NC(=O)CSC(=Nc1cccc(F)c1)NC#N returned HPGD block -5%.
COc1ccc(OCC(=O)OCCN2C(=O)c3ccccc3C2=O)cc1 was read as HPGD block -14%.
For CCN1CCN(c2nc3sc4c(c3c3ncnn23)CC(C)CC4)CC1 (stereo not given) the results were HPGD block -26%.
c1ccc(-c2nc3ccccc3c3nncn23)cc1 was read as HPGD block -2%.
`COCC(=O)OCn1nnc2ccccc2c1=O` gave HPGD block -2%.
C[C@](N)(Cc1ccc(O)c(O)c1)C(=O)O was read as HPGD block inconclusive.
Screening CCc1ccccc1N1CC23C=CC(O2)C(C(=O)O)C3C1=O (stereo not given) returned HPGD block -5%.
Screening O=C(CSC1=N/C(=C/c2ccc(Cl)c(Cl)c2)C(=O)N1c1ccccc1F)NC1CC1 returned HPGD block inconclusive.
`O=C(NCC1CCCO1)C1CCN(S(=O)(=O)c2cccnc2)CC1` (stereo not given) gave HPGD block -3%.
Screening Cc1cc(C)n2cc(COc3ccc4ccccc4c3)nc2n1 returned HPGD block -9%.
Screening O=C1/C(=C/c2cccnc2)Oc2cc(OS(=O)(=O)c3ccc(Cl)cc3)ccc21 returned HPGD block -23%.
For O=C(O)CCN1C(=O)c2ccncc2C1=O the results were HPGD block 1%.
Screening CCC(C)c1ccccc1NC(=O)COC(=O)c1ccc2c(c1)S(=O)(=O)c1ccccc1C2=O (stereo not given) returned HPGD block -9%.
Screening CC(C)CNC(=O)c1cccc(Cn2cc(Cl)cn2)c1 returned HPGD block -30%.
Screening Cc1ccc(NS(=O)(=O)c2ccc(NC(=O)[C@@H]3CCCC[C@@H]3C(=O)O)cc2)c(C)c1 returned HPGD block -13%.
For COc1ccc(NC(=O)C2C(=O)N(CCO)C3(C)CC2c2ccccc2O3)cc1 (stereo not given) the results were HPGD block -6%.
`CC(=O)NS(=O)(=O)c1ccc(NC(=O)CCc2ccccc2)cc1` gave HPGD block -15%.
Cc1c(C(C)(C)C)c(C=S)n2ccccc12 was read as HPGD block -14%.

In the list so far, 3 have a cyano group:
N#Cc1cn(CC(=O)NCc2cccnc2)c2ccccc12 was read as HPGD block -6%.
CCOc1cccc(C2C(C#N)=C(N)Oc3cc(C)n(Cc4ccccn4)c(=O)c32)c1OCC (stereo not given) was read as HPGD block -4%.
Screening CC(C)(C)NC(=O)CSC(=Nc1cccc(F)c1)NC#N returned HPGD block -5%.

Next compounds
For CN1c2ccccc2C(C)(C)C12C=Cc1cc(O)ccc1O2 (stereo not given) the results were HPGD block -13%.
`Nc1nccc(Nc2ccc(S(N)(=O)=O)cc2)n1` gave HPGD block 0%.
`CC(=O)NC(CCS(C)(=O)=O)C(=O)Nc1ccc(Oc2ccccc2)cc1` (stereo not given) gave HPGD block -13%.
Screening CCCCCOc1ccccc1C(=O)NCC(=O)O returned HPGD block -7%.
O=C(Nc1cccc([N+](=O)[O-])c1)c1ccncc1 was read as HPGD block -11%.
C=CCc1ccc(OCCOCCOc2cccc3ccc(C)nc23)c(OC)c1 was read as HPGD block -5%.
COc1ccc(OCCN(C)Cc2ccccc2)cc1 was read as HPGD block -11%.
`CCOC(=O)c1cnc(SCc2cccc(C)c2)nc1N` gave HPGD block inconclusive.
For COc1ccc(-c2cc(C(F)(F)F)nc(N3CCN(C)CC3)n2)cc1OC the results were HPGD block -7%.
For O=C1c2ccccc2C(=O)c2c1ccc(C(=O)N1CCCCC1)c2NCCO the results were HPGD block inconclusive.
Screening CCCCN(CCCC)C(=O)CSc1nnc2n(C)c(=O)c3c4c(sc3n12)CCCC4 returned HPGD block 1%.
O=C(O)C1CSC(c2ccncc2)N1 (stereo not given) was read as HPGD block -23%.
Screening Cc1nn(C)c(C)c1S(=O)(=O)N(CC(=O)NCc1ccco1)c1ccc(C(C)C)cc1 returned HPGD block -6%.
Screening N=c1n(CCN2CCCCC2)c2ccccc2n1CC(O)c1cccc(Br)c1 (stereo not given) returned HPGD block 1%.
`CCC/C=C(\CCC)C(NC(=O)OCC(C)C)c1ccccc1` (stereo not given) gave HPGD block -5%.
Screening CN(C)CN1C(=O)S/C(=C2/C(=O)N(CN(C)C)c3ccccc32)C1=O returned HPGD block 0%.
For Cc1ccc(-c2csc(NC(=O)C3CCN(S(=O)(=O)c4cccs4)CC3)n2)cc1 the results were HPGD block -1%.
For CCc1nc(N2CCOCC2)c(C#N)c2c1CCCC2 the results were HPGD block -28%.
`Cc1onc(-c2ccccc2)c1C(=O)Nc1ccnn1C1CCCCC1` gave HPGD block -5%.
For O=C(NCc1cccnc1)c1csc2c1CCCC2 the results were HPGD block -8%.
`CN=Cc1cc(-c2ccccc2)sc1O` gave HPGD block -15%.
`O=C(CCc1nc2cccnc2n1Cc1ccccc1)NCCc1ccc(Cl)cc1` gave HPGD block -5%.
`O=C(C/C=N/OCc1ccc(Cl)cc1Cl)c1ccccc1` gave HPGD block -29%.
`Nc1nc(Sc2ccc(C(F)(F)F)cn2)n[nH]1` gave HPGD block -10%.
`COc1ccccc1NS(=O)(=O)c1cc([N+](=O)[O-])ccc1N/N=C/c1sc(N2CCOCC2)nc1-c1ccccc1` gave HPGD block -22%.
`CCOc1cc(C(=O)OCC(=O)c2c(C)[nH]c3ccccc23)ccc1OCC(=O)N1CCOCC1` gave HPGD block -3%.
For O=C(O)C1CCCCC1C(=O)NCCc1ccccc1 (stereo not given) the results were HPGD block -4%.
For COC(=O)C1=C(C(=O)OC)C(c2ccccc2O)c2sc(=O)[nH]c2S1 (stereo not given) the results were HPGD block 22µM*.
CC(C)NC(=O)N1CC[C@@]2(CCCN(C(=O)c3cc(C(F)(F)F)cc(C(F)(F)F)c3)C2)C1 was read as HPGD block -2%.
For O=C(/C=C/c1cccs1)Nc1ccc([N+](=O)[O-])cc1 the results were HPGD block -10%.
`Cc1nnc2ccc(Oc3ccc(-c4ccccc4)cc3)nn12` gave HPGD block -21%.
`N#Cc1cccc(NC(=O)COc2ccc(-n3ccnc3)cc2)c1` gave HPGD block -4%.
C/C(=N\Nc1ncc(Cl)cc1Cl)c1ccc(OC(F)F)cc1 was read as HPGD block -12%.
CC(=O)N1CCN(C(=O)CNc2cc(C(F)(F)F)ccc2OCC(F)(F)F)CC1 was read as HPGD block -3%.
Screening CC(/C=N/NC(=O)Cn1cnc2ccccc21)=C\c1ccccc1 returned HPGD block -30%.
Screening O=C(CSc1nc2ccccc2n1CCc1ccccc1)NC1CCS(=O)(=O)C1 (stereo not given) returned HPGD block -9%.
O=C(N/N=C/c1ccc2c(c1)OCO2)/C(=C/c1ccc2c(c1)OCO2)NC(=O)c1ccccc1 was read as HPGD block inconclusive.
For O=c1cc2c(nn1Cc1cccc(Cl)c1)-c1ccccc1CC2 the results were HPGD block -29%.
Screening COc1ccc(C2Sc3nncn3N2Cc2ccc(C#N)cc2)cc1 (stereo not given) returned HPGD block -7%.
`O=C(NC1CCN(C(=O)NC2CCCCC2)CC1)c1ccco1` gave HPGD block -5%.
CCCCc1c(C)nc2ccccc2c1SCCC#N was read as HPGD block -26%.
`CCc1c(C)nc(SCC(=O)c2cccs2)c(C#N)c1C` gave HPGD block -17%.
For CCSC1=N/C(=C\c2ccc(OC)cc2)C(=O)N1 the results were HPGD block inconclusive.
`Cc1ccc(-c2csc(/C(C#N)=C/Nc3ccccc3SC(F)(F)F)n2)c(C)c1` gave HPGD block -12%.
For O=C1c2ccccc2C(=O)c2c1cccc2N1CCOCC1 the results were HPGD block 2%.
CCOC(=O)c1c(C)n(C)c2ccc(OCC(O)Cn3nc(C)c(Br)c3C)cc12 (stereo not given) was read as HPGD block -23%.
For COc1cc(C(=O)NC(=S)Nc2ccc3c(c2)C(=O)N(C)C3=O)cc(OC)c1OC the results were HPGD block -4%.
Screening CCc1ccccc1NC(=O)c1cnccn1 returned HPGD block -18%.
For CCOC(=O)C1CCCCN1Cc1ccc(C(F)(F)F)cc1 (stereo not given) the results were HPGD block -18%.
O=C(Nc1ccc(N2CCN(C(=O)c3ccc(Cl)cc3)CC2)cc1)c1cc2ccccc2o1 was read as HPGD block -24%.
Screening CCOCCCNc1nc2c(-c3ccccc3)nnn2c2ccccc12 returned HPGD block inconclusive.
`O=[N+]([O-])c1ccc(/C=N/Nc2cc(Cl)nc(-c3ccccc3)n2)cc1` gave HPGD block -2%.
Screening COc1ccccc1CNC(=O)C1CCN(c2nc3ccccc3o2)CC1 returned HPGD block -7%.
For CC1=CC=CC2=NC(=O)CC(C)(C(=O)N(CC(=O)NC(C)C)C3CCCC3)N12 (stereo not given) the results were HPGD block inconclusive.
`CCN1C(=O)CSC1=NC12CC3CC(CC(C3)C1)C2` gave HPGD block 1%.
Screening CCCn1c(SCC(=O)Nc2nnc(-c3ccccc3)s2)nnc1-c1ccccn1 returned HPGD block inconclusive.
`Cn1cccc1/C=C1\SC(=O)N(c2ccc(O)cc2)C1=O` gave HPGD block -11%.
For O=C(CNC(=O)c1ccc(Cl)cc1)NCC(F)(F)F the results were HPGD block -4%.
CCOc1cc(/C=N/O)ccc1OCc1ccc([N+](=O)[O-])cc1 was read as HPGD block -21%.
Cc1ccc(-c2nc(N3CCOCC3)sc2C(=O)N2CCCCC2)cc1 was read as HPGD block 0%.
O=C(NCc1ccco1)c1cccc(F)c1 was read as HPGD block inconclusive.
`O=C1CCCC(C(C(=O)OCc2ccccc2)C(=O)OCc2ccccc2)C1` (stereo not given) gave HPGD block -28%.
For COc1ccccc1-n1c(-c2ccc(NS(C)(=O)=O)cc2)n[nH]c1=S the results were HPGD block inconclusive.
For O=C1CC(N2CCN(Cc3ccccc3)CC2)C(=O)N1c1ccc2c(c1)OCCO2 (stereo not given) the results were HPGD block -5%.
For CC1Cc2ccccc2N1S(=O)(=O)c1cccc(C(=O)NCCCO)c1 (stereo not given) the results were HPGD block -2%.
`Nc1cc(N2CCCCC2)c([N+](=O)[O-])cc1Cl` gave HPGD block -23%.
Screening COc1ccc(C(=O)NNS(=O)(=O)c2ccccc2)cc1 returned HPGD block -4%.
`CCn1c(CNc2ccc(F)cc2)nnc1SCC(=O)Nc1ccc(OC)cc1` gave HPGD block -5%.
Screening COc1ccc2c(c1)C(=O)[C@H](OC(=O)NCCc1ccc(OC)c(OC)c1)[C@@H](c1ccc(OC)c(Br)c1)O2 returned HPGD block -6%.

Screens: PubChem BioAssay, National Center for Advancing Translational Sciences (NCATS)
